Screening data deposited in PubChem BioAssay by Johns Hopkins Ion Channel Center.
KCNQ2 pot: potentiators of rat KCNQ2 potassium channel; AID 2239; B-score at 10 µM; O88943; CHO-K1 KCNQ2, FluxOR thallium flux fluorescence; active compounds read high; 310,000 compounds, 0.54% hits;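 active means fluorescence ratio B-score at least 3 SD of library B-scores, with initial fluorescence B-score within 3 SD, cut at about 5.3 in these data; same plate scores as AID 2156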;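 further: B-score of peak minus minimum over baseline fluorescence ratio after K+ and Tl+ stimulus; positive B-score means potentiation of KCNQ2 with more thallium influx and brighter signal; only the inactives scoring about 0 or higher are listed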
Target sequence (O88943 whole entry, looked up): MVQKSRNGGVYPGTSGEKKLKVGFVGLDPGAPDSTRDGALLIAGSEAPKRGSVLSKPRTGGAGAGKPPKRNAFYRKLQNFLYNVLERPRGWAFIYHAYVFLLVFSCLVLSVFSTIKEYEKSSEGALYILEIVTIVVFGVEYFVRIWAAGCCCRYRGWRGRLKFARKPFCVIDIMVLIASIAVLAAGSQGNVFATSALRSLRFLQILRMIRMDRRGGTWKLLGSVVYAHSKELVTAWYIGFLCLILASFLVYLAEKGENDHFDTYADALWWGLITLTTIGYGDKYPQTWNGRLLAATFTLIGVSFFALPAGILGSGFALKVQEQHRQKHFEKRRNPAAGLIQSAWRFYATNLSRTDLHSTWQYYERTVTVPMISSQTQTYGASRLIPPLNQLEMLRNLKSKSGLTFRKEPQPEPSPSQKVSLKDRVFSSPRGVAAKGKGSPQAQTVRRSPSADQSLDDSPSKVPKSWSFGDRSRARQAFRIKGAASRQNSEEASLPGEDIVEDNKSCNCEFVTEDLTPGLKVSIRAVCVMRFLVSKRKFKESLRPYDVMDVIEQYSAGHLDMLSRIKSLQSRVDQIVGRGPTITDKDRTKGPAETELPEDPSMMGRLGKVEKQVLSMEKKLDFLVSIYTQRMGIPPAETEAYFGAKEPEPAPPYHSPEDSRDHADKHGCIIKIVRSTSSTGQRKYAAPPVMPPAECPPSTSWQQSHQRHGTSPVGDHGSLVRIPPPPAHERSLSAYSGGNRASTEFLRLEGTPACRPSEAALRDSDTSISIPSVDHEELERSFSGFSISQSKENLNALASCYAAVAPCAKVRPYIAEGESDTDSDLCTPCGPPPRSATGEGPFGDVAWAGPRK
KCNQ2 pot baseline: second read-out of KCNQ2 pot, no call of its own (marks repeat the call); B-score; compound at 10 µM; measured here: initial fluorescence intensity artifact check;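 brightness before thallium and not channel activity; 0 = typical well and far values either way flag optical interference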
* hit, by the source's call; . = no result given; & = joins results of further samples. The list is partial (hit frequency here may not be typical).

SMILES	KCNQ2 pot	KCNQ2 pot baseline
COc1cc(C2C(C#N)=C(N)Oc3cc(O)ccc32)cc(OC)c1OC (stereo not given)	0.84	0.05
COc1ccc([N+](=O)[O-])cc1NCc1cccnc1	0.25	-0.47
CC(C)[C@H](NS(=O)(=O)c1ccc(Cl)cc1)C(=O)OCC(=O)NCCN1C(=O)CSC1=O	0.99	0.21
CC(=O)N1CCN(c2ccc(NC(=O)c3ccc4c(c3)OCO4)cc2)CC1	0.31	0.35
COc1ccccc1/C=C/C(=O)NC(=S)NC(C)C	0.73	0.77
O=C(OCC(=O)N1CCOCC1)c1ccc(Cl)nc1	0.01	-1.3
Cc1cc(NC(=O)CSc2nnnn2C)n(-c2ccccc2)n1	0.01	-0.97
Cc1ccccc1CC1(CO)CCCN(Cc2ccn[nH]2)C1 (stereo not given)	0.93	0.84
O=C(OC(C(=O)O)C(OC(=O)c1ccccc1)C(=O)NCc1ccccc1)c1ccccc1 (stereo not given)	0.71	-0.71
Cc1cccc(Cc2cnc(N3C(=N)SC(c4ccccc4)C3=O)s2)c1 (stereo not given)	0.34	1
O=c1[nH]cnc2sc3c(c12)CCN(Cc1ccccc1)C3	0.58	-0.61
CCc1nnc(NC(=O)CSc2nccn2-c2cccc(C)c2)s1	0.12	-1.1
CC1=NN(C(N)=S)C(=O)C1N=Nc1c(C)cc(C)cc1C (stereo not given)	0.1	-0.94
CCc1c(C)sc(NC(=O)c2ccco2)c1C#N	0.66	-1.3
Cc1ccc(SCC(=O)NNC(=O)c2ccccc2)c(C)c1	1.7	0.8
O=C(NCc1ccccc1Cl)c1ccccc1CCc1ccccc1	-5.6	.
CNC(=O)CN(C1CCCCC1)S(=O)(=O)c1ccc(F)cc1	0.19	1.6
Fc1cc(F)cc(NC(=S)N2CCN(c3ncccn3)CC2)c1	1	-2.8
O=C(NCc1nnnn1-c1ccc(F)c(F)c1)c1ccc2ccccc2c1	0.46	0.39
O=C(CCNC(=O)c1ccccc1Cl)Nc1nc2ccccc2s1	0.65	1.4
Cc1cc(C(=O)OCC(=O)N2c3ccccc3NC(=O)C2(C)C)c(C)n1-c1ccccc1	0.74	1.2
COc1ccccc1N1CCN(C(=O)c2ccc(NS(=O)(=O)c3ccc(C)cc3)cc2)CC1	1	-0.77
COC(=O)c1c(O)cc(C(C)(C)C)n(-c2ccc(F)cc2)c1=O	1.6	-0.07
CC(=O)Nc1ccc(S(=O)(=O)N2CCN(S(=O)(=O)N3CCC(C)CC3)CC2)cc1	0.3	1.4
O=C(CSc1nnc(NC(=O)C2CC2)s1)Nc1ccccc1C(F)(F)F	0.07	0.44
(listing goes on)
SMILES	KCNQ2 pot	KCNQ2 pot baseline
NS(=O)(=O)c1ccc(Nc2ccc3cc(S(=O)(=O)N4CCCCC4)ccc3n2)cc1	1.6	-0.86
COc1ccc(CCC(=O)NCCS(=O)(=O)N2CCN(c3ccc(OC)cc3)CC2)cc1	0.07	-0.05
CCOc1ccc(-c2noc(CCC(=O)NC)n2)cc1OCC	0.23	-2.2
Cc1cnc(NC(=O)c2cc3ccccc3o2)s1	1.2	1.5
O=C1OCCC/C1=C\c1ccc2c(c1)OCO2	0.53	1.5
COc1cc(OC)cc(C(=O)NN2CCOCC2)c1	1.2	-0.03
COc1ccc(Cl)cc1S(=O)(=O)NCc1nc2nc(C)cc(C)n2n1	1.8	0.44
CN(C)CCNCc1ccc(OC2CCCC2)cc1	0.12	-0.15
COc1ccc(-c2nc3ccccc3s2)cc1O	2.1	-0.36
O=CN1CC(=O)N(c2ccccc2)c2c([nH]c3ccccc23)C1	1.8	-1.4
COc1ccccc1CNC(=O)CCc1ccccc1	0.89	0.31
COC(=O)c1sccc1NC(=O)COc1ccc(C)cc1	0.16	-1.1
CCOC(=O)C1=C(C)N(C2CCCCC2)C(=O)C1	0.34	-1.4
Cc1cccc(C)c1NC(=O)CNC(=O)c1ccc(NS(=O)(=O)c2ccc3[nH]c(=O)[nH]c3c2)cc1	0.09	0.32
CC(=O)C1=C(O)C(=O)OC1c1ccc(C)cc1 (stereo not given)	0.35	0.15
S=c1[nH]nc(-c2cccnc2)n1/N=C/c1ccco1	0.58	-0.78
CCCCN1C(C(=O)Nc2ncccn2)=C(O)c2ccccc2S1(=O)=O	0.74	-0.33
N#Cc1ccccc1OCCCNC1CCCC1	1.6	-0.5
CCCn1nc(NC(=O)CC(C)C)c2cc3cccc(C)c3nc21	5.3*	-0.05*
COc1ccc(CN2CCNC(=O)C2CC(=O)N(C)Cc2ccccn2)cc1OC (stereo not given)	0.44	-0.5
O=C(Nc1ccccn1)c1ccc(S(=O)(=O)c2ccc(Cl)cc2)cc1	0.04	0.64
CC(C(=O)Nc1ccc(S(=O)(=O)N2CCOCC2)cc1)N1CCN(c2ccccn2)CC1 (stereo not given)	0.25	0.17
CC[C@H](C)[C@@H](CNC)NC[C@@H](Cc1ccc(O)cc1)NCC(C)(C)C	0.03	-0.01
CCCn1c(=O)n(C)c(=O)c2c(SC(C)C(=O)NCC3CCCO3)nc(CC(C)C)nc21 (stereo not given)	0.01	-1.6
CCOc1cc(C2NC(=O)CCC2[N+](=O)[O-])cc(Br)c1OCC (stereo not given)	1.5	-1.2

The last 3 records of the part above come first, to join the parts.
SMILES	KCNQ2 pot	KCNQ2 pot baseline
CC[C@H](C)[C@@H](CNC)NC[C@@H](Cc1ccc(O)cc1)NCC(C)(C)C	0.03	-0.01
CCCn1c(=O)n(C)c(=O)c2c(SC(C)C(=O)NCC3CCCO3)nc(CC(C)C)nc21 (stereo not given)	0.01	-1.6
CCOc1cc(C2NC(=O)CCC2[N+](=O)[O-])cc(Br)c1OCC (stereo not given)	1.5	-1.2
CCCCN1C2CCCC1CC(NC(=O)c1cccc(OC)c1)C2 (stereo not given)	0.07	-0.48
COc1ccc(/C(C)=N/Nc2nc3ccccc3nc2C)cc1	0.56	-1.5
CN(C(=O)c1ccc2nccnc2c1)C1CCCCC1	0.66	-1.6
COc1ccc(C2=NN(C(=O)CSc3ncccn3)C(c3ccc(C)cc3)C2)cc1 (stereo not given)	1.9	-0.91
CN1CCc2c(sc(N)c2C(=O)c2ccc(Cl)cc2)C1	0.08	2.8
O=[N+]([O-])/C=C1\CCCCCN1	0.72	-1.1
Nc1n[nH]c(-c2ccc(Br)cc2)c1Cl	0.27	0.61
O=C1CCC(C(=O)Nc2cccc(Oc3ccccc3)c2)=NN1	1.6	-0.63
O=C(CCNC(=O)C1CCN(S(=O)(=O)c2ccc(F)cc2)CC1)NCc1cccc(Cl)c1	0.04	-1.5
CC(CN1c2ccccc2Sc2ccccc21)N(C)C (stereo not given)	1.8	-1.3
N=c1ccn(Cc2c(Cl)cccc2Cl)cc1	0.89	0.39
Cc1cc(C)cc(NC(=O)c2cc(Cl)sc2Cl)c1	1.1	0.16
CC(C)CN(CCCNC(=O)CN1C(=O)COc2ccc(S(=O)(=O)N3CCOCC3)cc21)CC(C)C	0.15	-0.33
Cc1c(NC(=O)CSc2n[nH]c(-c3ccccc3)n2)c(=O)n(-c2ccccc2)n1C	0.81	-0.07
CCC(C)c1ccc(OCC(=O)NNC(=O)C2CCCCC2)cc1 (stereo not given)	1.6	-1.7
COc1ccccc1N1C(=O)N(CC(=O)C(C)(C)C)c2ccccc2S1(=O)=O	0.8	2.8
CCOc1cccc(-c2c(C(=O)N/N=C(\C)c3ccccn3)nnn2-c2nonc2N)c1	0.69	0.46
O=c1c2ccccc2nc(-c2ccc(Cl)c(Cl)c2)n1O	15*	1.1*
O=C(Nc1ccc(F)cc1)N1CCCN(c2ccc(C(F)(F)F)cn2)CC1	0.84	1.1
O=C(Nc1ccc([N+](=O)[O-])c(NC(=O)C2CCCO2)c1)C1CCCO1 (stereo not given)	1.4	0.05
CCOC(=O)C1(CC)CC(CSc2nc3ccccc3[nH]2)OC1=O (stereo not given)	1.7	0.02
CNC(=S)NNc1nc(-c2ccccc2)c2cc(Cl)ccc2n1	0.93	1.2
Cc1cccc(Cn2c(C)nc3ccc([N+](=O)[O-])cc3c2=O)c1	0.21	1.7
COc1ccc(OC)c(C(=O)c2ccc(Cl)cc2)c1	0.02	-1.1
COc1ccc(NC2CC(=O)N(c3cccc([N+](=O)[O-])c3)C2=O)cc1 (stereo not given)	0.77	-0.91
Remaining list, next part:
SMILES	KCNQ2 pot	KCNQ2 pot baseline
O=C(O)CCCN=C1NC2(CCCC2)Cc2ccccc21	0.05	0.2
CCC(=O)N(Cc1cc2cc(OC)ccc2[nH]c1=O)c1cc(C)ccc1C	0.42	-0.16
CC(=O)N1c2c(cc(Br)cc2S(=O)(=O)N2CCCCC2)CC1C (stereo not given)	0.31	-0.31
S=c1[nH]nc(-c2cnccn2)n1-c1ccccc1	1.3	-0.16
O=C(CSc1ncc(C(F)(F)F)cc1Cl)N1CCN(S(=O)(=O)c2ccc(Cl)cc2)CC1	2.1	0.17
CCOc1cc(Br)c(C=O)cc1OCC	2.1	0.13
COc1cc(/C=C/c2ccc3cccc([N+](=O)[O-])c3n2)ccc1OCC#N	0.53	-0.51
O=c1cc2ncc(-n3cc([N+](=O)[O-])cn3)cn2[nH]1	0.88	-0.63
CN(C)S(=O)(=O)c1cc(C(=O)NCC2CCCO2)c(Cl)cc1Cl (stereo not given)	0.21	-0.17
Cc1cccc(N(CC(=O)NC2CCCC2)C(=O)CCC(=O)Nc2nc(C)cs2)c1	0.02	-0.81
O=C(Cc1cc(=O)[nH][nH]1)N/N=C/C=C/c1ccccc1	0.02&0.42	-0.42&1.4
CCc1ccc(C2CC(c3ccccc3)n3ncnc3N2)cc1 (stereo not given)	0.98	2.1
O=C(NCCC1CCCCN1S(=O)(=O)c1ccc(Cl)cc1)C(=O)NCc1ccncc1 (stereo not given)	0.35	0.13
CCOc1ccc(CC(=O)Nc2sc(Cc3ccccc3)c(C)c2C(N)=O)cc1OCC	0.3	1.1
COc1ccccc1NC(=O)c1nn(-c2ccc(Cl)cc2)ccc1=O	1.8	2.6
CN(CCCNC(=O)c1cc2c(=O)[nH]c3ccccc3c2n1C)Cc1ccccc1	0.2	-0.73
CC1(C)OC(=O)C(=CNc2cccc(O)c2)C(=O)O1	0.38	-0.02
COc1ccc(OCC(=O)Nc2cccc(NC(=O)c3ccco3)c2)cc1	0.82	-1.4
CCN(CC)CC(O)CN(c1ccccc1)S(=O)(=O)c1ccc2ccccc2c1 (stereo not given)	2	0.88
O=C(Nc1ccncc1)c1cccc(S(=O)(=O)N2CCCC2)c1	1.3	0.6
O=C(CCS(=O)(=O)c1ccc(Br)cc1)N1CCN(Cc2ccccc2)CC1	1.6	-1.2
CC(C)(C)c1ccc(OCCC(=O)NNC(=O)c2ccccc2)cc1	3.2	-1.1
Cc1ccc(C(c2nnnn2C2CCCCC2)N2CCc3ccccc32)cc1 (stereo not given)	-5.6	.
CCCS(=O)(=O)N1CCCC(C(=O)NCCc2ccc(Cl)cc2)C1 (stereo not given)	0.53	-0.34
COc1cc(/C=C/C(=O)O)ccc1O	0.66	0.56

Of the compounds above, nine have an aryl thioether with sulfur outside any ring.
SMILES	KCNQ2 pot	KCNQ2 pot baseline
Cc1cc(NC(=O)CSc2nnnn2C)n(-c2ccccc2)n1	0.01	-0.97
CCc1nnc(NC(=O)CSc2nccn2-c2cccc(C)c2)s1	0.12	-1.1
Cc1ccc(SCC(=O)NNC(=O)c2ccccc2)c(C)c1	1.7	0.8
O=C(CSc1nnc(NC(=O)C2CC2)s1)Nc1ccccc1C(F)(F)F	0.07	0.44
CCCn1c(=O)n(C)c(=O)c2c(SC(C)C(=O)NCC3CCCO3)nc(CC(C)C)nc21 (stereo not given)	0.01	-1.6
COc1ccc(C2=NN(C(=O)CSc3ncccn3)C(c3ccc(C)cc3)C2)cc1 (stereo not given)	1.9	-0.91
Cc1c(NC(=O)CSc2n[nH]c(-c3ccccc3)n2)c(=O)n(-c2ccccc2)n1C	0.81	-0.07
CCOC(=O)C1(CC)CC(CSc2nc3ccccc3[nH]2)OC1=O (stereo not given)	1.7	0.02
O=C(CSc1ncc(C(F)(F)F)cc1Cl)N1CCN(S(=O)(=O)c2ccc(Cl)cc2)CC1	2.1	0.17

Next part
SMILES	KCNQ2 pot	KCNQ2 pot baseline
CC(=N)c1c(O)c2ccccc2oc1=O	2.2	0.01
CCN(CC)C(=S)Nc1ccc(C(=O)OC)cc1	0.12	0.6
COc1ccc(CNC(=O)CCCC2=NS(=O)(=O)c3ccccc3N2)cc1	0.85	3.2
COC(=O)c1cc(S(=O)(=O)N2CCC(c3cc(OC)ccc3OC)C2)c[nH]1 (stereo not given)	0.55	-2.2
COc1ccccc1C1CC(c2ccc(Cl)cc2)Nc2ncnn21 (stereo not given)	1.1	-0.03
CC(C)Nc1nc(NC(C)C)nc(SCC(N)=O)n1	0.02	0.19
Cc1cccc(N(CC(O)CN2CCOCC2)S(=O)(=O)c2ccccc2)c1 (stereo not given)	0.03	-0.23
CCn1c(SCC(=O)Nc2nccs2)nnc1-c1ccc(C)cc1	0.69	-3.7
CC1CCCN(C(=O)c2cccc(S(=O)(=O)N3CCCc4ccccc43)c2)C1 (stereo not given)	1.2	1.2
C/C(=N\NC(=O)c1ccccc1O)C1C(=O)c2ccccc2C1=O	4.3	-2.7
CC1CCCN(C(=O)COc2ccc(NC(=O)c3cccs3)cc2)C1 (stereo not given)	0.51	-1.5
COC(=O)c1cc(=O)n(Cc2ccc(OC)cc2)c(=NCc2ccc(OC)cc2)s1	1.1	0.01
c1ccc2oc(-c3[nH]ncc3CN(Cc3ccncc3)CC3CCCO3)cc2c1 (stereo not given)	0.08	-0.01
CC(NC(=O)c1ccccc1NC(=O)c1ccco1)c1ccccc1 (stereo not given)	0.44	-0.56
CCC(C)C(=O)Nc1nnc(SCC(=O)NC(C)(C)C)s1 (stereo not given)	0.27	-0.03
O=C(NCc1ccccn1)c1ccc(COc2ccc(Cl)cc2)o1	0.53	1.3
COc1ccc(CCN(C)C(=O)CSc2nnc(-c3ccco3)o2)cc1OC	1.6	-0.85
